# TDP1 inh: TDP1 (human) enzyme inhibition; Q9NUW8; recombinant TDP1, AlphaScreen DNA substrate cleavage; Potency, µM (highest dose often 130 µM), inactives show at the highest dose activity change, negative = inhibition, actives largely listed as inhibitors; hit rate 0.28% among 350,000; note: nearly all actives have a fitted effect of over 40% in size
# Target sequence (Q9NUW8 whole entry, looked up): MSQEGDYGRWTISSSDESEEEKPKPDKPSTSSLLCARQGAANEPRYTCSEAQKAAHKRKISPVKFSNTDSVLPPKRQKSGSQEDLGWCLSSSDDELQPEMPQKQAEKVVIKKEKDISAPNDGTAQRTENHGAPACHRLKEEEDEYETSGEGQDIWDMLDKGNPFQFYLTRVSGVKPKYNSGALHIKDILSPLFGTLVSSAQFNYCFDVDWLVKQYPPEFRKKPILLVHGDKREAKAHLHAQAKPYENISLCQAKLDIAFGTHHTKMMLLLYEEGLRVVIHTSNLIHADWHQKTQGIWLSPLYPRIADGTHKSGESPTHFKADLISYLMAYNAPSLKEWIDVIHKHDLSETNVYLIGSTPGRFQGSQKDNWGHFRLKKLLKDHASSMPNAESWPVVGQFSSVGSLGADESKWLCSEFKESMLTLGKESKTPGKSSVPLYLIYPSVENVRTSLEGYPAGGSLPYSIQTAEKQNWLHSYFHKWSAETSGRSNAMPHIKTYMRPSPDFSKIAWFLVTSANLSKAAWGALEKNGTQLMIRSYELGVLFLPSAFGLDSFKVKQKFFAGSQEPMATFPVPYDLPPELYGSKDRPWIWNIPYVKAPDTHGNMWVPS
#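 Enzyme-compound mixtures sat 15 min at room temperature, followed by a 5 min reaction with 15 nM final substrate and 10 min with AlphaScreen beads. Recombinant human Tdp1 was used at 1 nM final.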
# N370S GC: inhibits or activates N370S mutant glucocerebrosidase; AID 2101; Potency, µM (top dose mostly 59.4 µM), without a hit: at the highest dose activity change, negative = inhibition, most hits filed as inhibitors; N370S GC spleen homogenate, 4MU-glucoside fluorescence; P04062; hit rate 0.092% among 330,000;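 note: 0% = full enzyme activity and -100% = no enzyme basal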
# The depositor's hits bear a star; ? = inconclusive; · = not tested or not shown; & = joins results of further samples; [ ] = dose if it differs, or a comment. Calls come from the whole dose curve; as a rule, active = well fitted curve in the direction sought with a large enough effect; inconclusive = small, poorly fitted or top-dose-only effect, or another doubt; inactive = no such curve, though single readings can be large; an effect the other way counts as inactive or inconclusive. Unless noted, % is set by controls: 0 for no effect and ±100 for the full control effect; potency is the fitted concentration of half-maximal effect. Some of the compounds tested, and most or all hits are left out here.
SMILES,TDP1 inh,N370S GC
CCCCC1=CC2=C(c3ccco3)C(=O)C(C)(OC(=O)c3ccc(OC)cc3)C(=O)C2=CN1CCOC (stereo unspecified),4%[12.3 µM],-9%[12.8 µM]
O=C(Oc1ccc(Nc2ncnc3ccccc23)cc1)c1cccnc1,-8%,-4%
COc1cccc(/C=C/C(=O)c2c(O)cc(C)oc2=O)c1O,9%,-9%
c1ccc(OCCOc2ccccc2-c2nnco2)cc1,5%,-9%[2.35 µM]
O=C(/C=C(\c1ccc(Cl)cc1)n1cncn1)c1ccc(Cl)cc1,-7%,11%
CC(Sc1ccc(Br)cc1)C(N)=O (stereo unspecified),2%,-1%
CN(C(=O)CSc1nnc(Nc2ccccc2)s1)C1CCS(=O)(=O)C1 (stereo unspecified),-5%,1%
Cc1ccc(NS(=O)(=O)c2ccc3[nH]c(=O)sc3c2)cc1,7%,-9%
C[C@]12C(=O)N(c3cccc(Cl)c3)C(=O)N1[C@H]1c3ccccc3OC[C@@H]1[C@H]2c1ccccc1,·,4%
CCOC(=O)C1CCN(c2csc3ccc(C)cc3c2=O)CC1,-1%,·
COc1ccc(NC(=O)c2cc3ccccc3o2)cc1OC,4%,0%
O=C(Cc1ccccc1)Nc1scc(-c2ccccc2)c1C(=O)N1CCOCC1,2%,-3%
CCC1SC(C)C/C(=N/NC(N)=O)C1C (stereo unspecified),·,6%
C/C(=N/NC(=O)CNC(=O)C1COc2ccccc2O1)c1ccc([N+](=O)[O-])cc1 (stereo unspecified),4%,-7%
C=CCNC(=S)NCc1ccc(CNC(=S)NCC=C)cc1,-2%,-4%
COc1ccccc1C(=O)NCCC(=O)NNC(=O)C1COc2ccccc2O1 (stereo unspecified),-10%,-2%
COc1ccc(C(=O)Nc2ccc(NC(=O)c3cccc(F)c3)cn2)cc1,-15%,-6%
Cc1ccc(NC(=O)Cn2cc(C(F)(F)F)cc(Cl)c2=O)cc1S(=O)(=O)N1CCCCC1,5%,-7%
COc1ccc(OC)c(S(=O)(=O)N2CCCC(C(=O)N3CCCCCC3)C2)c1 (stereo unspecified),1%,-5%
COC(=O)CSc1nc2c(c(=O)n(C)c(=O)n2C)n1CCCc1ccccc1,3%,5%[2.35 µM]
Cc1ccnc(NC(=O)c2cc([N+](=O)[O-])cc([N+](=O)[O-])c2)c1,8%,2%
COCCNS(=O)(=O)c1ccc(SC)cc1,3%,4%
CCCOC(=S)N/C(=N\S(=O)(=O)c1ccccc1)c1ccccc1,0%,3%
CC(C)=CC(=O)Nc1nnc(-c2ccccc2C)s1,3%,-2%
CCOc1ccc(NC(=O)CN(C)C(=O)CCCn2c(=O)oc3ccccc32)cc1OCC,0%,1%
COC(=O)c1ccc(CN2C(=O)NC(c3ccccc3)(c3ccccc3)C2=O)o1,9%,3%
CCN1CCN(c2nc(C)c3c(n2)CCCC3=O)CC1,3%,9%
Cc1nnc(NC(=O)CN2CCN(Cc3c(Cl)cccc3Cl)CC2)s1,·,0%
Cc1nnc(CN(C)C(=O)CC2C(=O)NCCN2Cc2ccccc2C)o1 (stereo unspecified),3%,0%
O=C(NNC(=O)c1c(O)c2ccccc2[nH]c1=O)c1ccccc1Br,-5%,13%
CCOC(=O)C(Sc1cc(C)nc(N)n1)C(C)=O (stereo unspecified),-5%,18%
O=C1C2CCCCN2C(=O)N1CCCCN1CCN(c2ccc(F)cc2)CC1 (stereo unspecified),·,1%
COc1ccc(CC(=O)Nc2ccc(N(C)C)c3ccccc23)cc1,·,-4%
COc1ccc(N(CC(=O)Nc2cccc3ccccc23)S(C)(=O)=O)cc1,·,-7%
Cc1ccc(NC2=CC(=O)CC(C)(C)C2)cc1Cl,·,-23%
CCn1c(C2CCN(Cc3ccccc3)CC2)n[nH]c1=S,·,-7%
FC(F)Sc1ccc(Nc2ncnc3nc[nH]c23)cc1,-1%,5%
Cc1ccc(CNC(=O)CCc2nc3ccccc3c(=O)[nH]2)cc1,6%,2%
Cc1sc2ncn(CC(=O)NCCCC(=O)NCc3ccc(F)cc3)c(=O)c2c1C,1%,-3%
CCCn1c(SCC(=O)NCc2ccccc2)n[nH]c1=O,7%,10%

# Single records (already shown):
# CC(C)=CC(=O)Nc1nnc(-c2ccccc2C)s1 as listed: TDP1 inh: 3%; N370S GC: -2%
# COc1ccc(CC(=O)Nc2ccc(N(C)C)c3ccccc23)cc1 as listed: TDP1 inh: ·; N370S GC: -4%

# Later entries.
SMILES,TDP1 inh,N370S GC
CCOC(=O)C1(Cc2ccccc2C)CCCN(C(=O)c2ccc3nccnc3c2)C1 (stereo unspecified),2%,-23%
Cc1ccc(C(=O)OCC(=O)Nc2cc(C(C)(C)C)nn2-c2ccccc2)c(O)c1,·,8%
COc1ccc(CCNC(=O)C2CC2)cc1OC,2%,13%
CC(C)(CNC(=O)/C=C/c1ccc(F)cc1)CNC(=O)/C=C/c1ccc(F)cc1,-2%,-3%
CC(=O)N/C(=C/c1ccc2c(c1)OCO2)C(=O)NCC(=O)O,-2%,4%
CC(C)N(Cc1ccccc1)C(=O)COC(=O)c1ccc(S(=O)(=O)N2CCOCC2)cc1,2%,·
O=C(NCCS(=O)(=O)NCc1ccc(Cl)cc1)c1ccccc1,·,-13%
Cc1cccc(OCC(O)Cn2c(N3CCCCC3)nc3c2c(=O)[nH]c(=O)n3C)c1 (stereo unspecified),·,-1%
O=C1CC(N2CCOCC2)C(=O)N1c1cc(Cl)cc(Cl)c1 (stereo unspecified),-1%,10%[2.35 µM]
COc1ccc(C(=O)N2CCN(Cc3ccccc3C)CC2)cc1OC,5%,0%
CCC(C)(C(=O)NC1CCCCC1)N(C(=O)c1cnccn1)c1c(C)n(C)n(-c2ccccc2)c1=O (stereo unspecified),3%,-2%
CCc1cc2c(N[C@@H](Cc3c[nH]c4ccccc34)C(=O)O)ncnc2s1,5%,3%
CCOC(=O)C1CCN(S(=O)(=O)c2ccc(OC)c(Cl)c2Cl)CC1,-1%,15%
Cc1cc(C(=O)NNS(=O)(=O)c2ccc(F)cc2)nn1C(C)(C)C,-3%,27%
Cc1nc2c(cc1NC(=O)c1ccccc1)nc(C)n2Cc1ccccc1,·,-3%
CC(C)=CCN1CCN(Cc2ccc(C)s2)CC1CCO (stereo unspecified),-5%,?
O=C(N/N=C/c1c(O)ccc2ccccc12)c1ccc(Br)o1,?,-1%
Cc1nnc(NC(=O)Oc2ccccc2)s1,-2%,-3%
CCOC(=O)C1CCN(C(=O)COC(=O)/C=C/c2ccccc2)CC1,0%,·
CCCCc1cc(=O)oc2cc(OCC(=O)NCCN3CCOCC3)ccc12,1%,-13%

# 19 of the compounds above, tab-delimited:
structure	TDP1 inh	N370S GC
Cc1ccc(C(=O)OCC(=O)Nc2cc(C(C)(C)C)nn2-c2ccccc2)c(O)c1	·	8%
COc1ccc(CCNC(=O)C2CC2)cc1OC	2%	13%
CC(C)(CNC(=O)/C=C/c1ccc(F)cc1)CNC(=O)/C=C/c1ccc(F)cc1	-2%	-3%
CC(=O)N/C(=C/c1ccc2c(c1)OCO2)C(=O)NCC(=O)O	-2%	4%
CC(C)N(Cc1ccccc1)C(=O)COC(=O)c1ccc(S(=O)(=O)N2CCOCC2)cc1	2%	·
O=C(NCCS(=O)(=O)NCc1ccc(Cl)cc1)c1ccccc1	·	-13%
Cc1cccc(OCC(O)Cn2c(N3CCCCC3)nc3c2c(=O)[nH]c(=O)n3C)c1 (stereo unspecified)	·	-1%
O=C1CC(N2CCOCC2)C(=O)N1c1cc(Cl)cc(Cl)c1 (stereo unspecified)	-1%	10%[2.35 µM]
COc1ccc(C(=O)N2CCN(Cc3ccccc3C)CC2)cc1OC	5%	0%
CCC(C)(C(=O)NC1CCCCC1)N(C(=O)c1cnccn1)c1c(C)n(C)n(-c2ccccc2)c1=O (stereo unspecified)	3%	-2%
CCc1cc2c(N[C@@H](Cc3c[nH]c4ccccc34)C(=O)O)ncnc2s1	5%	3%
CCOC(=O)C1CCN(S(=O)(=O)c2ccc(OC)c(Cl)c2Cl)CC1	-1%	15%
Cc1cc(C(=O)NNS(=O)(=O)c2ccc(F)cc2)nn1C(C)(C)C	-3%	27%
Cc1nc2c(cc1NC(=O)c1ccccc1)nc(C)n2Cc1ccccc1	·	-3%
CC(C)=CCN1CCN(Cc2ccc(C)s2)CC1CCO (stereo unspecified)	-5%	?
O=C(N/N=C/c1c(O)ccc2ccccc12)c1ccc(Br)o1	?	-1%
Cc1nnc(NC(=O)Oc2ccccc2)s1	-2%	-3%
CCOC(=O)C1CCN(C(=O)COC(=O)/C=C/c2ccccc2)CC1	0%	·
CCCCc1cc(=O)oc2cc(OCC(=O)NCCN3CCOCC3)ccc12	1%	-13%

# Other entries follow.
SMILES,TDP1 inh,N370S GC
Cc1ccc(S(=O)(=O)N2[C@@H](c3ccc(C#N)cc3)C(C(=O)O)=C[C@H]2C(C)(C)C)cc1,2%,·
CCN(Cc1nc(-c2cccc(C)c2)no1)C(=O)c1ccco1,13%,3%
CN(C)CCNc1nc2c(c(=O)[nH]c(=O)n2C)n1CC(O)COc1ccc(Cl)cc1 (stereo unspecified),2%,-5%
C[C@H]1[C@H]2c3nc4ccccc4n3C[C@H]1ON2C1CCCCC1,·,-1%
COc1cccc(C(C)N(C)Cc2nc(COc3ccccc3)no2)c1 (stereo unspecified),-6%,15%
CCCc1cc(=O)[nH]c(SCC(=O)N(CC)c2c(N)n(Cc3ccccc3)c(=O)[nH]c2=O)n1,-10%,2%
CC(C(=O)Nc1cccc([N+](=O)[O-])c1)N(c1ccccc1)S(C)(=O)=O (stereo unspecified),-5%,-1%
CCOc1cc(C(=O)N2CCOCC2)ccc1OCc1ccccc1,5%,3%
O=C(NCCN1CCOCC1)c1cnn2c(-c3ccccc3)cc(-c3ccccc3)nc12,8%,-2%
Cc1cccc(C)c1NC(=O)CN1C(=O)CCSc2ccc(S(=O)(=O)N3CCCC3)cc21,1%&-3%,-11%
O=c1c2ccccc2nnn1Cc1nnc(-c2ccccc2Br)o1,6%,5%
CCCCn1c(=O)[nH]c(=O)c2c1nc(-c1ccc(C#N)cc1)n2C1CCCC1,6%,25%
c1ccc2nc3ccccc3nc2c1,3%,3%
COc1ccc(/C=N/NC(=O)c2nn(-c3ccc(Cl)cc3)c(=O)c3c(N)scc23)cc1,-2%,0%
C[C@H](CO)N1C[C@H](C)[C@@H](CN(C)C(=O)Nc2ccc(C(F)(F)F)cc2)Oc2ccc(NC(=O)c3ccncc3)cc2C1=O,-3%,·
Cc1cnn(-c2cc(Oc3ccccc3)ncn2)c1,-5%,-5%
COc1ccc(C(=O)NC2CC2)cc1OC1CCN(Cc2ccc(F)c(F)c2)CC1,2%,-8%
O=C(CN1CCN(Cc2ccccc2)CC1)NNC(=O)c1ccc(Cl)cc1,-3%,1%
O=C(Nc1ccn(-c2ccccc2)n1)c1ccc(S(=O)(=O)N2CCCCCC2)cc1,2%,0%
COc1ccc(C=O)cc1OC(=O)N1CCOCC1,·,7%
CN(Cc1ccccc1)c1ccc([N+](=O)[O-])cc1C(=O)O,0%,-12%
O=C(Nc1ccc(S(=O)(=O)Nc2ccccc2F)cc1)N1CCCCC1,-4%,-7%
CN1C/C(=C\c2ccc(N3CCOCC3)cc2)C(=O)/C(=C/c2ccc(N3CCOCC3)cc2)C1,3%,-7%
CCCCNC(=O)C1CCCN(S(=O)(=O)c2ccc(-n3cnnn3)cc2)C1 (stereo unspecified),1%,8%[2.35 µM]
N#CC1=C(N)N(c2ccc(Cl)c(Cl)c2)C(=O)C1,4%,-1%
CCOc1ccc(C(C(=O)NCC2CCCO2)N(Cc2cccnc2)C(=O)c2snc(C(N)=O)c2N)cc1 (stereo unspecified),10%,?
CS(=O)(=O)N1CCC(N2CCN(Cc3ccc(F)cc3)C(=O)C2=O)CC1,5%,·
Cc1ccccc1Nc1ncnc2c1cnn2Cc1ccccc1,8%,5%
CC1=NCCN1CCNC(=O)Nc1ccc(C(C)(C)C)cc1,0%,-6%
CC(C)c1c(C(=O)N/N=C/c2ccsc2)nnn1-c1nonc1N,0%,2%

# Screens from PubChem.
